Compound activity as filed in PubChem BioAssay.
NOMO-1 viab = STK33 inhibitor candidate reducing NOMO-1 cell viability; NOMO-1 AML viability, CellTiter-Glo luminescence, 72 h; inhibition, % (no concentration beside the values); AID 2330; actives 7.5% (n = 37,000);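 active means most replicates above 80%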;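 further: wells of about 30 µL received 25 nL stock; 0% = median of vehicle wells and 100% = reference inhibitor level; the first replicate is given; inactives centre near 10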
Numbers without * were called inactive. The list is partial; count on the stated rates, not on these rows.

SMILES	NOMO-1 viab
Cc1ccc(S(=O)(=O)Nc2cccc3c2O[C@@H](CN(C)C(=O)NC2CCCCC2)[C@H](C)CN([C@H](C)CO)C3=O)cc1	-3
Cc1ccc(S(=O)(=O)N(C)C[C@H]2Oc3ccc(NC(=O)C4CCCCC4)cc3CC(=O)N([C@@H](C)CO)C[C@@H]2C)cc1	20
C[C@H](CO)N1C[C@H](C)[C@H](CN(C)Cc2ccc(C(F)(F)F)cc2)Oc2c(NC(=O)CCCCCC(=O)Nc3ccccc3N)cccc2C1=O	115*
C[C@H](CO)N1C[C@H](C)[C@H](CN(C)C(=O)Nc2cccc3ccccc23)Oc2ccc(NC(=O)Nc3ccccc3)cc2CC1=O	6
CC(C)NC(=O)N(C)C[C@H]1Oc2c(NC(=O)c3ccncc3)cccc2C(=O)N([C@@H](C)CO)C[C@@H]1C	-7
NNC(=O)C12CCCC(CCC1)C2	-14
C[C@H]1CN([C@@H](C)CO)C(=O)c2cc(NC(=O)Cc3ccccc3)ccc2O[C@@H]1CN(C)S(=O)(=O)c1ccc(F)cc1	10
C[C@@H]1CN([C@H](C)CO)C(=O)Cc2cc(NC(=O)Nc3ccc(F)cc3)ccc2O[C@H]1CN(C)S(=O)(=O)c1ccccc1	8
N#C/C(=C\Nc1cnccn1)S(=O)(=O)c1ccc(C(F)(F)F)cn1	16
C[C@H]1CN([C@@H](C)CO)C(=O)c2cccc(NC(=O)Nc3cccc4ccccc34)c2O[C@H]1CN(C)CC1CCCCC1	20
C[C@H](CO)N1C[C@H](C)[C@@H](CN(C)S(=O)(=O)c2ccc(Cl)cc2)Oc2c(NS(=O)(=O)c3cn(C)cn3)cccc2C1=O	29
CCOC(=O)C(C)Oc1ccc2c(-c3ccccc3)cc(=O)oc2c1 (configuration not stated)	109*
C[C@@H]1CN([C@@H](C)CO)C(=O)c2cccc(NS(=O)(=O)c3cn(C)cn3)c2O[C@@H]1CN(C)Cc1ccc(Oc2ccccc2)cc1	0
CCOC(=O)c1c(NC(=O)CSc2nc(C)cc(C(F)(F)F)n2)sc(C)c1C	13
COc1ccc(S(=O)(=O)Nc2ccc3c(c2)C(=O)N([C@H](C)CO)C[C@@H](C)[C@H](CN(C)C)O3)cc1	4
Cc1noc(C)c1S(=O)(=O)Nc1cccc2c1O[C@H](CN(C)Cc1ccc(-c3ccccc3)cc1)[C@H](C)CN([C@@H](C)CO)C2=O	41
COc1nsnc1N1CCOCC1	13
Cc1noc(C)c1NC(=O)Nc1ccc2c(c1)C(=O)N([C@H](C)CO)C[C@H](C)[C@H](CN(C)S(=O)(=O)c1cccs1)OCCCC[C@@H](C)O2	0
COc1ccccc1C1CCN(C(=O)CSCc2cccc3ccccc23)CC1	6
CCOC(=O)c1c(NC(C)=O)sc2c1CCCCC2	43

Retrieved one by one from above:
SMILES	NOMO-1 viab
C[C@@H]1CN([C@H](C)CO)C(=O)Cc2cc(NC(=O)Nc3ccc(F)cc3)ccc2O[C@H]1CN(C)S(=O)(=O)c1ccccc1	8
C[C@@H]1CN([C@@H](C)CO)C(=O)c2cccc(NS(=O)(=O)c3cn(C)cn3)c2O[C@@H]1CN(C)Cc1ccc(Oc2ccccc2)cc1	0
C[C@H]1CN([C@@H](C)CO)C(=O)c2cccc(NC(=O)Nc3cccc4ccccc34)c2O[C@H]1CN(C)CC1CCCCC1	20
Cc1noc(C)c1S(=O)(=O)Nc1cccc2c1O[C@H](CN(C)Cc1ccc(-c3ccccc3)cc1)[C@H](C)CN([C@@H](C)CO)C2=O	41
C[C@H](CO)N1C[C@H](C)[C@@H](CN(C)S(=O)(=O)c2ccc(Cl)cc2)Oc2c(NS(=O)(=O)c3cn(C)cn3)cccc2C1=O	29
Cc1ccc(S(=O)(=O)N(C)C[C@H]2Oc3ccc(NC(=O)C4CCCCC4)cc3CC(=O)N([C@@H](C)CO)C[C@@H]2C)cc1	20

Later entries.
SMILES	NOMO-1 viab
C[C@H]1CN([C@@H](C)CO)C(=O)Cc2cc(NC(=O)c3ccncc3)ccc2O[C@@H]1CN(C)C	9
CC(C)NC(=O)N(C)C[C@@H]1Oc2ccc(N(C)C)cc2CC(=O)N([C@H](C)CO)C[C@H]1C	14
C[C@@H]1CN([C@@H](C)CO)C(=O)c2cccc(NS(C)(=O)=O)c2O[C@@H]1CN(C)C(=O)Nc1ccc(F)cc1	-16
COc1ccc(S(=O)(=O)Nc2ccc3c(c2)C(=O)N([C@@H](C)CO)C[C@H](C)[C@@H](CN(C)Cc2ccncc2)O3)cc1	12
COc1ccc(S(=O)(=O)N(C)C[C@H]2Oc3c(NS(=O)(=O)c4ccc(F)cc4)cccc3C(=O)N([C@@H](C)CO)C[C@H]2C)cc1	26
COc1ccc(S(=O)(=O)Nc2ccc3c(c2)C(=O)N([C@H](C)CO)C[C@H](C)[C@@H](CN(C)C(=O)NC2CCCCC2)OCCCC[C@@H](C)O3)cc1	21
Nc1ncnc(NCC2CCCO2)c1[N+](=O)[O-] (configuration not stated)	18
COCCNC(=O)c1ccccc1NC(=O)c1ccc([N+](=O)[O-])cc1	3
C[C@H](CO)N1C[C@H](C)[C@@H](CN(C)Cc2ccc(Oc3ccccc3)cc2)Oc2c(NS(=O)(=O)c3cn(C)cn3)cccc2C1=O	16
Cc1ccc(S(=O)(=O)N(C)C[C@@H]2Oc3c(NC(=O)C4CC4)cccc3C(=O)N([C@H](C)CO)C[C@H]2C)cc1	-17
COc1ccc(N(CC(=O)Nc2cccc(Cl)c2Cl)S(C)(=O)=O)cc1OC	9
Cc1ccc(-n2c(SCC(=O)Nc3c(Cl)cccc3Cl)nnc2-c2ccncc2)cc1	-1
C[C@@H]1CN([C@@H](C)CO)C(=O)c2cc(NC(=O)CCC(F)(F)F)ccc2O[C@H]1CN(C)S(=O)(=O)c1ccc(Cl)cc1	27
C[C@@H]1CN([C@@H](C)CO)C(=O)c2cc(N(C)C)ccc2O[C@@H]1CN(C)C	-10
CCn1ncc(CN(C)C(=O)c2cc(-c3cccnc3)nc3ccc(Cl)cc23)c1C	71
C[C@@H]1CN([C@H](C)CO)C(=O)Cc2cc(NS(C)(=O)=O)ccc2O[C@H]1CN(C)S(=O)(=O)c1ccc(F)cc1	-9
Cc1noc(C)c1S(=O)(=O)Nc1cccc2c1O[C@H](CN(C)Cc1ccc(Cl)c(Cl)c1)[C@H](C)CN([C@H](C)CO)C2=O	-5
C[C@H]1CN([C@@H](C)CO)C(=O)c2cccc(NS(=O)(=O)c3cn(C)cn3)c2O[C@@H]1CN(C)Cc1ccc(Oc2ccccc2)cc1	-5
C[C@@H]1CN([C@@H](C)CO)C(=O)c2cc(NC(=O)C3CCCCC3)ccc2O[C@@H]1CN(C)S(=O)(=O)c1ccc(F)cc1	-1
C[C@H](CO)N1C[C@H](C)[C@@H](CN(C)Cc2ccc(C(F)(F)F)cc2)Oc2ccc(N(C)C)cc2C1=O	23
Cc1ccc(S(=O)(=O)N(C)C[C@@H]2Oc3c(NC(=O)Nc4ccc(C(F)(F)F)cc4)cccc3C(=O)N([C@@H](C)CO)C[C@@H]2C)cc1	39
Cc1noc(C)c1S(=O)(=O)Nc1ccc2c(c1)CC(=O)N([C@H](C)CO)C[C@@H](C)[C@@H](CN(C)Cc1ccc(C(=O)Nc3ccccc3N)cc1)O2	100*
O=C(CSc1nc2[nH]ncc2c(=O)n1-c1ccccc1)Nc1ccc(F)c(Cl)c1	51
O=C(Oc1ccccc1)c1cccc(COC(=O)c2cc3ccccc3oc2=O)c1	5
c1ccc2[nH]c(CCn3c4c(c5ccccc53)CCCC4)nc2c1	35
C[C@@H]1CN([C@H](C)CO)C(=O)c2cc(NS(C)(=O)=O)ccc2O[C@H]1CN(C)CC1CCCCC1	3
C[C@@H]1CN([C@@H](C)CO)C(=O)c2cccc(NC(=O)CCCCCC(=O)Nc3ccccc3N)c2O[C@@H]1CN(C)Cc1ccccc1	88*
COc1ccc(S(=O)(=O)N(C)C[C@H]2Oc3c(NC(=O)Nc4ccc(C(F)(F)F)cc4)cccc3C(=O)N([C@@H](C)CO)C[C@@H]2C)cc1	112*
COC(=O)c1ccccc1NC(=O)CSc1nc2cc3ccccc3cc2[nH]1	5
C[C@@H]1CN([C@@H](C)CO)C(=O)Cc2cc(NC(=O)CCC(F)(F)F)ccc2O[C@@H]1CN(C)CC1CCCCC1	17
COc1ccc2c(c1)CCC1C2CCC2(C)C1C[C@@H](O)C2O (some centres not stated)	4
C[C@H]1CN([C@@H](C)CO)C(=O)c2cccc(NC(=O)c3cnccn3)c2O[C@@H]1CN(C)C(=O)Nc1ccc(C(F)(F)F)cc1	6
c1cncc(-c2nc3c4c5c(sc4ncn3n2)CCCC5)c1	2
Cc1sc2nc(SCC(=O)N3CCC(c4noc5ccc(F)cc45)CC3)n(-c3ccccc3)c(=O)c2c1C	41
C[C@H]1CN([C@@H](C)CO)C(=O)Cc2cc(NC(=O)CCCN(C)C)ccc2O[C@H]1CN(C)CC1CCCCC1	-13
Cc1ccc2oc(-c3cc(NC(=O)c4ncn[nH]4)ccc3O)nc2c1	34
C[C@@H]1CCCCO[C@@H](CN(C)C)[C@@H](C)CN([C@H](C)CO)C(=O)c2cc(NC(=O)Nc3ccccc3)ccc2O1	108*
COc1ccc(N(CC(=O)O)S(C)(=O)=O)cc1	13
C[C@H]1CN([C@@H](C)CO)C(=O)Cc2cc(NC(=O)C3CC3)ccc2O[C@@H]1CN(C)C	-1
C[C@H]1CN([C@@H](C)CO)C(=O)c2cc(NC(=O)Nc3ccccc3)ccc2O[C@H]1CN(C)Cc1ccc(C(=O)O)cc1	-25
C[C@H]1CN([C@@H](C)CO)C(=O)c2cc(NC(=O)CCC(F)(F)F)ccc2O[C@@H]1CN(C)Cc1ccc(-c2ccccc2)cc1	21
COc1ccc(C(=O)Nc2ccccc2C(=O)NCCN2CCOCC2)cc1	-2
O=C(CSc1nc2ccccc2c(=O)[nH]1)Nc1ccc(F)cc1F	0
CC(C)NC(=O)Nc1ccc2c(c1)CC(=O)N([C@@H](C)CO)C[C@H](C)[C@@H](CN(C)C(=O)Nc1ccccc1)O2	3
O=[N+]([O-])c1ccc(N2CCN(S(=O)(=O)c3ccc(Cl)s3)CC2)cc1NCc1ccco1	-14
CN(CCCc1nc2ccccc2[nH]1)S(=O)(=O)c1ccc(Cl)cc1	35
C[C@H]1CN([C@@H](C)CO)C(=O)c2cc(NS(=O)(=O)c3cn(C)cn3)ccc2O[C@@H]1CN(C)C(=O)Nc1ccc(C(F)(F)F)cc1	17
C[C@H](CO)N1C[C@H](C)[C@@H](CN(C)Cc2ccccc2)Oc2c(NS(=O)(=O)c3ccc(F)cc3)cccc2C1=O	-6
CNC[C@@H]1Oc2ccc(NC(=O)Nc3ccccc3)cc2CC(=O)N([C@H](C)CO)C[C@@H]1C	-13
CCc1cccc(OCC(=O)Nc2sc3c(c2C(N)=O)CCCC3)c1	-1
O=C(CCC(=O)c1ccc(Oc2ccccc2)cc1)Nc1ccc(C(=O)O)cc1	11
CCOC(=O)O[C@]1(C(=O)COC(=O)CC)CC[C@H]2[C@@H]3CCC4=CC(=O)C=C[C@]4(C)[C@H]3[C@@H](O)C[C@@]21C	-18
C[C@@H]1CN([C@@H](C)CO)C(=O)Cc2cc(NC(=O)Cc3cn(C)c4ccccc34)ccc2O[C@@H]1CN(C)C	19
CCOc1ccc(-n2cnnn2)cc1S(=O)(=O)Nc1c(C)cccc1C	5
C[C@@H]1CN([C@H](C)CO)C(=O)Cc2cc(NS(C)(=O)=O)ccc2O[C@H]1CN(C)C(=O)Nc1ccccc1	19
C[C@H]1CN([C@@H](C)CO)C(=O)Cc2cc(NC(=O)NC3CCCCC3)ccc2O[C@H]1CN(C)C(=O)Nc1cccc2ccccc12	6
Cc1cc(C)c(C#N)c(SCC(O)CS(=O)c2ccc(C(C)(C)C)cc2)n1 (configuration not stated)	23
C=C[C@]1(C)C[C@H](O)[C@H]2C(=C)C(=O)O[C@@H]2[C@H]1C(=C)CO	53
C[C@H]1CN([C@@H](C)CO)C(=O)Cc2cc(NS(=O)(=O)c3ccc(Cl)cc3)ccc2O[C@H]1CN(C)S(=O)(=O)c1cn(C)cn1	3
C[C@@H]1CN([C@H](C)CO)C(=O)Cc2cc(NC(=O)CCCN(C)C)ccc2O[C@@H]1CN(C)S(=O)(=O)c1ccc(F)cc1	-8

The last 2 compounds of the section before lead into the next:
SMILES	NOMO-1 viab
C[C@H]1CN([C@@H](C)CO)C(=O)Cc2cc(NS(=O)(=O)c3ccc(Cl)cc3)ccc2O[C@H]1CN(C)S(=O)(=O)c1cn(C)cn1	3
C[C@@H]1CN([C@H](C)CO)C(=O)Cc2cc(NC(=O)CCCN(C)C)ccc2O[C@@H]1CN(C)S(=O)(=O)c1ccc(F)cc1	-8
C[C@@H]1CN([C@@H](C)CO)C(=O)Cc2cc(NC(=O)Cc3ccccc3)ccc2O[C@@H]1CN(C)C(=O)Nc1ccc(F)cc1	-7
O=C(Cc1ccccc1)Nc1cccc(C(=O)OCC(=O)c2ccc(Cl)cc2)c1	22
C[C@@H]1CN([C@H](C)CO)C(=O)c2cccc(NC(=O)c3cnccn3)c2O[C@@H]1CN(C)S(=O)(=O)c1ccc(F)cc1	-1
C[C@H]1CN([C@@H](C)CO)C(=O)Cc2cc(NC(=O)Nc3ccc(F)cc3)ccc2O[C@@H]1CN(C)S(=O)(=O)c1ccc(F)cc1	25
C[C@@H]1O[C@@H](O[C@@H]2[C@@H](O)[C@H](Oc3cc(O)c4c(c3)OC(c3ccc(O)cc3)CC4=O)O[C@H](COC3OCC(O)C(O)C3O)[C@H]2O)[C@H](O)[C@H](O)[C@H]1O (some centres not stated)	7
Cc1noc(C)c1S(=O)(=O)Nc1ccc2c(c1)C(=O)N([C@H](C)CO)C[C@@H](C)[C@H](CN(C)C(=O)NC(C)C)O2	8
CCC(=O)c1ccc(OCC(O)Cn2c(C)nc3ccccc32)cc1 (configuration not stated)	64
COc1ccc(NC(=O)Nc2ccc3c(c2)CC(=O)N([C@@H](C)CO)C[C@@H](C)[C@@H](CN(C)C(=O)Nc2ccc(F)cc2)O3)cc1	-10
CC(C)(C)c1ccc(OCC(=O)Nc2cccc(NC(=O)c3ccccc3)c2)cc1	25
CCc1cccc(CC)c1NC(=S)Nc1ccc(C)cc1	33
